Compound activity (PubChem BioAssay)
D2 ag: human D2 receptor agonism in beta-arrestin assay; DiscoveRx PathHunter D2 beta-arrestin, luminescence, 90 min; 100% = 57 uM dopamine signal; activation, % (test concentration not listed); AID 624465; 360,000 compounds, 0.084% hits; in the data active = activation above about 40%; inconclusive = about 15% to 40%; inactive = below about 15%; note: compound concentration not given in the record; the text of the record calls up to 30% inactive
Target sequence (P14416 whole entry, looked up): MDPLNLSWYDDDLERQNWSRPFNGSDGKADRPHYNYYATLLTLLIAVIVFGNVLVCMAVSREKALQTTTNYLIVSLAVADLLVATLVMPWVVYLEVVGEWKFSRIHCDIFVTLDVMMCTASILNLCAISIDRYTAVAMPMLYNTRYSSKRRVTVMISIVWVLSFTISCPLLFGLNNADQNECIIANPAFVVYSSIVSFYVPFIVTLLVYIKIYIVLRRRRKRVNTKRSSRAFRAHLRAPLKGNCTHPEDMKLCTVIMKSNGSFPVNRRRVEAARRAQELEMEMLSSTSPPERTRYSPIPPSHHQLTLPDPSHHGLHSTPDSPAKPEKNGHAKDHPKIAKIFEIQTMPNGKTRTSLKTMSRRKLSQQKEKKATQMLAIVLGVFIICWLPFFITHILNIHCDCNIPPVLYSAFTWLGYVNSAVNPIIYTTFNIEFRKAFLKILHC
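DiscoveRx PathHunter D2 beta-arrestin cells (2,100/well) attached overnight, then compound-stimulated 90 min at 37 C in HBSS/10 mM HEPES/0.1% Tween-20 buffer; beta-galactosidase complementation read by luminescence after 1 h at ambient temperature. Dopamine 57 uM final (EC100) as control.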
TRPML1 ag: human mucolipin-1 channel agonism; Q9GZU1; TRPML1-expressing cells, Ca2+ dye fluorescence, FDSS; host cell line not named in the record; reference of the full effect not given here; activation, % (test concentration not listed); 410,000 compounds, 0.12% hits; AID 624414; in the data active = activation above about 50%; inconclusive = about 30% to 50%; inactive = below about 30%; note: 0% is about no effect; the text of the record puts the active cut at 80%
Target sequence (Q9GZU1 whole entry, looked up): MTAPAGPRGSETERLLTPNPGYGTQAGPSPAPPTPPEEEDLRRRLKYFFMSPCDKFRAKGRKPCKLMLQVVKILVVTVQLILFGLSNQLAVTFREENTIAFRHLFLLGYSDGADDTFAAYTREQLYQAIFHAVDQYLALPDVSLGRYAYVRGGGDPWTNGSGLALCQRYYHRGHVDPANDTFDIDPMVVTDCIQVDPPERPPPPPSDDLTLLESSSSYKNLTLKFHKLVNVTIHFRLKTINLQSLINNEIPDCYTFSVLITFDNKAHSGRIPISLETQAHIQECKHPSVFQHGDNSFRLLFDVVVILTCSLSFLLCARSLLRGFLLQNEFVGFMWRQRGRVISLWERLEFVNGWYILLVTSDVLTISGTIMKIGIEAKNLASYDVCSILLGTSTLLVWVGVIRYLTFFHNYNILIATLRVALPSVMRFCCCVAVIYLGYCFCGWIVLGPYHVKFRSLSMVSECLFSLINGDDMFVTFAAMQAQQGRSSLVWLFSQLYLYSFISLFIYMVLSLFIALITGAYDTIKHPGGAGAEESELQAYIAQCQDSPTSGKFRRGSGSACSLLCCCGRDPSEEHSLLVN
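Tet-induced TRPML1-DL cells, 1,500 per well, cultured overnight, were loaded with a no-wash Ca2+ dye for 45–90 min. Calcium fluorescence was recorded on the FDSS for 110 s after compound addition, before the EC80 agonist (4 uM 54-4) was added.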
CtBP-E1A inh: CtBP/E1A binding inhibition; AlphaScreen GST-E1A/His-CtBP binding, 1536-well; hits give low values; control for the full effect not named in the record; activity change, % (concentration not given with the values); 340,000 compounds, 0.49% hits; in the data active means activity change below about -65%; inconclusive means about -30% to -65%; inactive means above about -30%; note: % is set by controls: 0 for no effect and ±100 for the full control effect
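AlphaScreen with 125 nM GST-E1A and 125 nM His-CtBP (5X stocks) in Tris pH 8.0, 300 mM NaCl, BSA, Tween 20, TCEP. Compounds preincubated 2 h at 37 deg C, then glutathione donor/nickel acceptor beads added for 1 h at 37 deg C in dark.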
Six1-Eya2 inh: inhibitors of human Six1/Eya2 interaction; 360,000 compounds, 0.56% hits; activity change, % (test concentration not listed); AlphaScreen GST-Six1/His-Eya2 binding, biochemical; hits give low values; control for the full effect not named in the record; AID 651725; Q15475+O00167; in the data active = activity change below about -65%; inconclusive = about -30% to -65%; inactive = above about -30%; note: % is set by controls: 0 for no effect and ±100 for the full control effect
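Compounds are tested against tagged Six1 and Eya2 proteins bridged by glutathione donor and nickel acceptor beads; after a one-hour incubation at 37 °C without light, AlphaScreen emission is recorded.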
TRPML1 inh: human mucolipin-1 channel inhibition; Q9GZU1; TRPML1-inducible cells, Ca2+ dye fluorescence, FDSS; hits give low values; inhibition of EC80 agonist-evoked calcium signal; activity change, negative = inhibition, % (concentration not given with the values); 390,000 compounds, 0.02% hits; in the data active means activity change below about -50%; inconclusive means about -30% to -50%; inactive means above about -30%;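 note: stimulus is agonist 54-4 at its EC80 concentration; % is set by controls: 0 for no effect and ±100 for the full control effect; the text of the record puts the active cut at -80%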
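TRPML1-DL cells, Tet-induced overnight (~16 h, 37 °C) at 1,500 cells/well, were loaded with Ca8 no-wash dye plus quencher for 45-90 min at room temperature. Compounds were pinned during FDSS kinetic reading; agonist 54-4 at EC80 (4 uM final) then added.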
PINK1 expr mod: PINK1 expression modulation. PINK1 immunofluorescence, high-content cytometry, 24 h. Potency, µM (top dose mostly 76.6 µM), inactives show at the highest dose activation (PINK1 increase), hits mostly activators. 410,000 compounds, 0.2% hits. AID 624263; active = well fitted activation curve with a large enough effect; inconclusive = small, poorly fitted or top-dose-only effect; inactive = flat fitted curve, though single readings scatter; cell line not stated here;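 note: potency is the fitted concentration of half-maximal effect; % of control where 0% means no effect; nearly all actives have a fitted effect of over 65% in size; a mitochondrial uncoupler was the plate control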
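Decision-based qHTS: stable cells, 24 h exposure to five compound concentrations, CCCP as control. Fixed cells stained for PINK1 plus nuclear, mitochondrial and cell markers, cytometer read.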
* marks the source's active call; other numbers are inactive results; ? = inconclusive; . = not tested or not shown; & = joins results of further samples; [ ] = remark or other dose.

SMILES | D2 ag | TRPML1 ag | CtBP-E1A inh | Six1-Eya2 inh | TRPML1 inh | PINK1 expr mod
COC(=O)C1=CC(C(=O)c2cccs2)=NN(c2ccc(OC)cc2)C1C(=O)OC (centres undefined) | -6.2 | 4.8 | ? | ? | 49 | 2.2%
O=C1C(Cl)=C(N2CCOCC2)C(=O)N1c1ccccc1 | 6.2 | 1.1 | -5 | 0 | 9 | 1.0%[38.3 µM]
CCn1cc(S(=O)(=O)c2cccc(C)c2)c(=O)c2cc(F)c(N3CCN(c4ccccc4)CC3)cc21 | . | 1.0 | . | . | -7 | ?
COc1ccc(CCNC(=S)N2CCN(S(=O)(=O)c3ccc(Cl)cc3)CC2)cc1 | -4.3 | 0.8 | 3 | -1 | 29 | ?
Cc1ccc([N+](=O)[O-])c(C)[n+]1C | ? | 0.0 | . | 1 | -15 | -1.6%
CC1(C)CC(CC(=O)O)C(=O)O1 (centres undefined) | -1.5 | -0.7 | -3 | 1 | 10 | 1.3%
Fc1cccc(F)c1/C=C/c1ccc2ccccc2n1 | 0.3 | 3.0 | 55 | 42 | 4 | 3.3%
O=C(CCC(=O)N1CCN(c2ccccn2)CC1)c1cccs1 | -2.8 | -0.4 | -3 | -22 | 9 | -2.1%
Cn1c(CS(=O)Cc2c(Cl)cccc2Cl)nnc1SCc1c(Cl)cccc1Cl (centres undefined) | -5.2 | 4.3 | -5 | -4 | -23 | -2.1%[38.3 µM]
Cc1ccccc1-c1noc(-c2cccnc2N(C)Cc2ccc(Cl)cc2)n1 | . | 1.3 | . | . | 4 | 3.9%
Nc1ccccc1-n1c(=O)n(Cc2ccccc2F)c(=O)c2[nH]cnc21 | -4.2 | 3.2 | 4 | -2 | 10 | -1.3%
CC1CN(C(=O)Cn2cc(S(=O)(=O)CC(=O)N(C)c3ccccc3)c3ccccc32)CC(C)O1 (centres undefined) | -2.6 | -0.3 | 4 | 4 | -7 | -0.7%
O=S(=O)([O-])C(c1ccccc1)[n+]1ccccc1 (centres undefined) | -0.8 | -0.2 | -7 | 8 | -3 | 0.6%
Cc1cccc(-c2nc3cc(NC(=O)Cc4ccc(Cl)cc4)ccc3o2)c1 | . | -0.6 | . | . | -9 | 5.1%
Cc1ccc(CNC(=O)CCS(=O)(=O)c2cc3c(cc2Cl)NC(=O)CO3)cc1 | -3.7 | 0.0&1.3 | 2 | 0 | 18&1 | 0.9%&-1.2%
CC(=O)Nc1ccc(NC(=O)C2Cc3c(-c4cccc(NC(C)=O)c4)ccnc3O2)cc1 (centres undefined) | -2.1 | -0.6 | -22 | -28 | . | 1.4%
O=C(O)c1cccc(S(=O)(=O)N2CCC(Cc3ccccc3)CC2)c1 | 0.9 | 0.1 | 7 | 1 | -4 | 0.5%
CCC(C)N1CC23C=CC(O2)C(C(=O)OC)C3C1=O (centres undefined) | -1.5 | 1.6 | 5 | -1 | -14 | -3.6%
Oc1ccc(/C=N/Nc2ccnc3cc(Cl)ccc23)c(O)c1O | -6.3 | 1.0 | 3 | 8 | -4 | 0.9%
C[n+]1ccc(C(=O)NCc2ccccc2)cc1 | -4.3 | -0.8 | . | -1 | 17 | 2.0%
Cc1cc2c(cc1C)[n+](C)cn2CC(O)COCC1CC=CCC1 (centres undefined) | -6.3 | -0.1 | 3 | -6 | 24 | 3.9%
CCOc1cc(Cl)c(CNCCCN2CCOCC2)cc1OC | 1.8 | 0.2 | 14 | 1 | 0 | 1.8%
N/C(=N\OC(=O)Cc1cccs1)c1ccc([N+](=O)[O-])cc1 | 1.5 | -1.5 | -13 | -25 | 3 | -1.0%
Cc1ccc(C(=O)N2CCC(n3nccc3NC(=O)C3CCOC3)CC2)cc1 (centres undefined) | -1.1 | 0.0 | 2 | 5 | 3 | -0.1%
O=C(CSc1nnc(C2CC2)n1Cc1ccccc1)c1ccc(S(=O)(=O)N2CCOCC2)cc1 | 1.0 | 1.8 | 7 | 2 | -15 | 0.2%

Among those listed so far, 2 contain a nitro group on carbon:
SMILES | D2 ag | TRPML1 ag | CtBP-E1A inh | Six1-Eya2 inh | TRPML1 inh | PINK1 expr mod
Cc1ccc([N+](=O)[O-])c(C)[n+]1C | ? | 0.0 | . | 1 | -15 | -1.6%
N/C(=N\OC(=O)Cc1cccs1)c1ccc([N+](=O)[O-])cc1 | 1.5 | -1.5 | -13 | -25 | 3 | -1.0%

(continued)
SMILES | D2 ag | TRPML1 ag | CtBP-E1A inh | Six1-Eya2 inh | TRPML1 inh | PINK1 expr mod
Cc1nc(SCC(=O)NC(=O)NCc2ccco2)nc(C)c1C | 0.6 | -1.6 | -2 | -6 | 0 | 0.2%
CCCn1c(=O)[nH]c(=O)c2c(C(=O)OCC)cc(-c3cccs3)nc21 | -0.7 | -1.3 | -8 | -3 | -4 | 1.0%
CC1(c2ccccc2)NC(=O)N(CC(=O)NCCN2C(=O)S/C(=C\c3cccnc3)C2=O)C1=O (centres undefined) | -1.2 | 0.3 | -6 | 2 | -30 | -0.2%
CC1(C)CC(=O)c2c(oc3c(Cl)cc(NS(=O)(=O)c4ccc(Br)cc4)cc23)C1 | . | 0.0 | . | . | 8 | -1.0%
CCSc1ncc(Cl)c(C(=O)N(Cc2ccc(N(C)C)cc2)Cc2ccco2)n1 | . | 1.5 | . | . | -23 | -0.2%
COc1ccc(-c2cc(=O)c3c(OC)c(OC)c(OC)c(OC)c3o2)cc1 | -3.4 | . | -1 | -4 | . | -1.0%&0.9%
O=C(Nc1ccc(Br)c2cccnc12)c1cccc2ccccc12 | . | 1.1 | . | . | 5 | 0.5%
CCOc1ccc(NC(=O)CN(C)C(=O)Cc2sc(C)nc2-c2ccc(F)cc2)cc1OCC | 0.5 | 1.3 | 5 | -5 | 16 | 0.5%
CCCN(CC(=O)Nc1ccc(C(N)=O)cc1)CC(=O)Nc1ccc(Cl)cc1Cl | -1.1 | -0.2 | -2 | 2 | 2 | ?
COc1ccc([N+](=O)[O-])cc1/C=N/NC(=O)CNC(=O)C(c1ccccc1)c1ccccc1 | -0.9 | 0.8 | -11 | -16 | -12 | -1.1%
Cc1noc(C)c1NC(=O)N(C)C[C@H]1Oc2c(cccc2N(C)C)C(=O)N([C@H](C)CO)C[C@@H]1C | -2.8 | 0.7 | -16 | 6 | 3 | -1.8%
CCc1ccccc1NC(=O)CN1C(=O)CCc2cc(S(=O)(=O)N3CCCCC3)ccc21 | . | -0.3 | . | . | -8 | 1.6%
NC(N)=Nc1nc(CCN2C(=O)c3ccccc3C2=O)cs1 | 0.1 | 0.1 | -3 | -3 | 9 | 4.9%[38.3 µM]
COc1nccnc1NS(=O)(=O)c1ccc(NC(=O)c2ccccc2Br)cc1 | 2.5 | 1.0 | -5 | -19 | 38 | 1.2%
COc1ccc(-c2noc(CNC(=O)c3ccoc3C)n2)cc1OC | -0.8 | 0.1 | 9 | 0 | -5 | 0.8%
CC(=O)c1ccc(NC(=O)CC(c2cccs2)N2Cc3ccccc3C2=O)cc1 (centres undefined) | . | 2.4 | . | . | 42 | -3.4%
Cn1c(SCC(=O)Nc2ccc(NC(=O)c3cccs3)cc2)nnc1-c1ccncc1 | -3.1 | 0.7 | -2 | -1 | 4 | 0.0%
COc1cc(/C=C/C(=O)OCC(=O)Nc2cccc(Oc3ccccc3)c2)ccc1O | 1.5 | 0.7 | 2 | -16 | -8 | 8.8%
CC(=O)N1c2ccc(S(=O)(=O)NCCC(=O)N3CCC(C)CC3)cc2CC1C (centres undefined) | 1.6 | 0.4 | -7 | 1 | -15 | -1.5%
C=CCn1nnnc1SCC(=O)Nc1ccc(OC)cc1 | 5.1 | 0.5 | 8 | 10 | 15 | -0.4%
CCOC(=O)N1CCC(NC(=O)Cn2ncc3ccccc32)CC1 | -1.9 | -0.1 | 53 | 16 | -8 | 0.2%[38.3 µM]
CC(C)CN(C(=O)CN1CCN(c2ccc(F)cc2)CC1)c1c(N)n(CC(C)C)c(=O)[nH]c1=O | -3.0 | 0.2 | 0 | -1 | 0 | 3.9%
CCOc1cc(C(=O)OCC(=O)Nc2cccc(C)c2)ccc1OCC(=O)N1CCOCC1 | -1.0 | 0.0 | 5 | 1 | 1 | 2.5%
Cc1noc(-c2ccc(Cl)cc2)c1C(=O)O/N=C(\N)c1ccc(C(C)(C)C)cc1 | 47* | 0.0 | -9 | -2 | -2 | -2.3%
CCc1nc2ccc(C(=O)NCCc3c[nH]c4ccccc34)cn2c1N(C)Cc1ccc(N(C)C)cc1 | ? | -1.1 | ? | ? | . | 0.4%
SMILES | D2 ag | TRPML1 ag | CtBP-E1A inh | Six1-Eya2 inh | TRPML1 inh | PINK1 expr mod
CCOC(=O)C1CCN(CC(=O)c2c(C)[nH]c3ccccc23)CC1 | -1.5 | 1.2 | 2 | 0 | -10 | -2.0%
O=C(O)c1cccc(NC(=O)c2ccccc2NC(=O)c2cccc([N+](=O)[O-])c2)c1 | -0.1 | -0.7 | . | 7 | 9 | -1.1%
Cc1ccccc1CS(=O)(=O)CC1Nc2ccc(C(=O)NCc3ccc(Cl)cc3)cc2NC1=O (centres undefined) | . | 0.5 | . | . | -3 | 1.9%
CCCCC(=O)Oc1ccc2oc(-c3ccc(OC)cc3)cc(=O)c2c1 | . | 0.1 | . | . | -6 | 0.2%
C[C@H](NC(=O)c1nc[nH]c1C(=O)N1CCNCC1)C(=O)OCc1ccccc1 | -1.1 | 0.4 | 1 | -1 | -7 | 1.6%
O=C(c1cccs1)n1nc(NCc2ccccc2)nc1NCc1ccccc1 | -7.3 | 0.9 | 0 | 3 | -1 | 3.4%
Fc1cccc(NCc2ccccc2-c2nnc(-c3ccccc3Cl)o2)c1 | . | 0.7 | . | . | -16 | 0.4%
CCN(CC)C(=O)c1[nH]cnc1C(=O)Nc1ccccc1 | -3.4 | -1.0 | -1 | 3 | -1 | -1.0%
Cc1ccc(Cl)cc1NC(=O)CSc1ccc(C(=O)O)cn1 | . | 0.4 | . | . | 36 | 1.1%
COCCCN1C(=O)c2ccc(C(=O)Nc3ccc(C)cc3C)cc2C1=O | 0.3 | -0.5 | . | 11 | -5 | -0.7%
O=C1NC2(CCC3(CC2)OCCO3)NN1c1ccc(Cl)cc1 | -1.8 | 1.1 | -9 | -3 | -11 | 2.9%
Cc1cccc(NC(=O)C2CCN(S(=O)(=O)c3ccc4c(c3)CCCC(=O)N4)CC2)c1 | . | 3.6 | . | . | -2 | 0.0%
O=C(O)Cn1nnc(-c2ccc(OCc3ccccc3Cl)cc2)n1 | 1.4 | -0.3 | 9 | -6 | 35 | 1.4%
CC(=O)Nc1ccc2c(c1)OCCOCCOc1cc(NC(C)=O)ccc1OCCO2 | 3.6 | -0.1 | 6 | 5 | -9 | 2.2%
COc1ccc(NC(=O)c2cc(S(=O)(=O)N(C)C)ccc2N2CCCC2)cc1Cl | 0.0 | 0.1 | 3 | 1 | 6 | 4.0%
CCOC(=O)c1sc(C)c2c(=O)n(Cc3ccc(Cl)cc3)cnc12 | 3.1 | -0.1 | 17 | 1 | 9 | 5.1%
Cc1cc(NC(=O)COc2coc(CN3CCN(c4ccccc4)CC3)cc2=O)no1 | 15 | 2.2 | 3 | -8 | 11 | -0.1%
